Mtb MbtI inh = inhibitors of Mycobacterium tuberculosis siderophore enzyme MbtI. P9WFX0. purified MbtI enzyme, fluorescence intensity read-out. inhibition, %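 (about 17 µg/mL by stock and volumes)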. 0.89% of 100,000 active;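 active = above 50% in both replicates, above 80% if mildly self-fluorescent; inactive = the rest, strongly fluorescent compounds included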;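 also: 0% = mean of negative and 100% = mean of positive controls; one replicate is shown; some compounds called inactive have numbers as strong as hits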
Target sequence (P9WFX0 whole entry, looked up): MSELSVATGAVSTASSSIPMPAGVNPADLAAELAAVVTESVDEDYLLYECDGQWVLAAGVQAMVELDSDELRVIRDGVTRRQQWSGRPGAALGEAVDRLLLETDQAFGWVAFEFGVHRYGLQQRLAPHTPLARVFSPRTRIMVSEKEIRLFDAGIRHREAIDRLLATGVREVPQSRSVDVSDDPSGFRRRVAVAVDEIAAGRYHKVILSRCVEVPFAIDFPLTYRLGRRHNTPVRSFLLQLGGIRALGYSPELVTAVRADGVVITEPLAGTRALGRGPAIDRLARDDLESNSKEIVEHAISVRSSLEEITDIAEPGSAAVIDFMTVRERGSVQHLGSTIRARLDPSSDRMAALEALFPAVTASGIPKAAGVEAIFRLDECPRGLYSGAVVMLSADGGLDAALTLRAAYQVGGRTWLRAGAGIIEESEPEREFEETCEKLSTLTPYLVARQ
Polio RdRp inh = poliovirus RNA polymerase inhibition. 0.66% of 150,000 active. P03300. % elongation, % (compound at 16.7 µg/mL). AID 588519. poliovirus polymerase elongation, fluorescence polarization; stronger effect = lower value; in the data active = % elongation below about 90%; also: some results filed as inactive read as strong as hits
Target sequence (P03300 1749-2209 limits assumed): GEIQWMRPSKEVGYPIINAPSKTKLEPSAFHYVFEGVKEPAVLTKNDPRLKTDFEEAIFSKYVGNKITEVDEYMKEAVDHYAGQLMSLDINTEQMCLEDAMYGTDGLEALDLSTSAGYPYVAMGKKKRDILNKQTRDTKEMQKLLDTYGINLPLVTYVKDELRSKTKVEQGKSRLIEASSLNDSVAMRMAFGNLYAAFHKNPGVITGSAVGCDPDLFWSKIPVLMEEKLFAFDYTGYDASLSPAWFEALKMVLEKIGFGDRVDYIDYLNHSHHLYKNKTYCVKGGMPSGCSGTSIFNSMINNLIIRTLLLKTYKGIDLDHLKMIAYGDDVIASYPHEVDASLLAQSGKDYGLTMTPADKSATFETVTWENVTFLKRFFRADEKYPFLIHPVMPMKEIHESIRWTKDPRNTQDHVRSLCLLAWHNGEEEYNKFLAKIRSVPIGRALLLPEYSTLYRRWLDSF
MenB inh = blocks the Mycobacterium tuberculosis MenB enzyme. P9WNP5. MenB enzyme assay, absorbance read-out; some hits fall short of the stated cut. 0.43% of 100,000 active. inhibition, %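 (about 12 µg/mL by stock and volumes)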;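 active = mean of two replicates above 30%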;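 also: 0% = no compound and 100% = wells with inactive enzyme; the first replicate is given; strong numbers were not always called active; inactives centre near -10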
Polio RdRp inh intensity = second read-out of Polio RdRp inh, no call of its own (marks repeat the call); % elongation; measured here: total intensity read-out; formula for this scale not given here;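 total fluorescence in place of polarization; lower means less elongation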
* marks the source's active call; other numbers are inactive results; · = not tested or not shown.

SMILES	Mtb MbtI inh	Polio RdRp inh	Polio RdRp inh intensity	MenB inh
O=C(CN1C2=NCCN2c2ccccc21)c1ccc(Cl)cc1Cl	10	102	96	-10
CCOC(=O)c1cn2cc(Cl)ccc2n1	12	104	106	-2
CCC(Sc1nnc2c3ccccc3n(C)c2n1)C(=O)Nc1nnc(C(F)(F)F)s1 (configuration not stated)	-3	103	104	-18
CN1C(=O)CC(C(=O)Nc2ccccc2F)SC1=Nc1ccc(Cl)cc1 (configuration not stated)	-7	104	100	-1
Nc1nc2c(-c3ccc(Br)cc3)nnn2c2ccccc12	-54	103	99	-21
Clc1ccc(-c2ncnn2-c2ccccc2)c(Cl)c1	-3	105	110	-14
Cc1cc(Nc2ccc(C(=O)O)cc2)c2cc(Cl)ccc2n1	-12	102	103	-5
O=C(O)C12CCCC(CBr)(CCC1)C2	-13	102	105	·
O=C(c1ccc(N2CCCC2=O)cc1)N(Cc1ccco1)Cc1cccs1	7	99	105	-30
COc1cc(SC)ccc1C(=O)N1CCc2ccccc2C1	·	104	106	-19
Nc1noc2c1C(c1ccc(F)c(Oc3ccccc3)c1)C1=C2CCCC1=O (configuration not stated)	-2	102	102	-18
O=C(CN1CCN(CC(=O)c2ccccc2)CC1)c1ccccc1	2	100	100	-10
COc1cccc(CC(C)C(N)=O)c1 (configuration not stated)	·	100	94	4
CN(C)S(=O)(=O)c1ccc(S(=O)(=O)N2CC=C(c3ccc(F)cc3)CC2)cc1	-12	102	98	-6
c1ccc(CNC2CCCc3c2[nH]c2ccc(-c4ccccc4)cc32)cc1 (configuration not stated)	57	104	97	-4
O=C(CSc1c2c(nc3ccc(Cl)cc13)CCCC2)NCc1ccccn1	9	102	106	-71
CCN(CC)C(=O)Cc1cc(OC)c(OC)cc1Br	-9	103	107	·
O=C(NCCNc1nccc(C(F)(F)F)n1)Nc1ccccc1Cl	-4	101	97	-27
CN1CCN(Cc2cc3sccc3n2Cc2ccc(F)cc2)CC1	-3	101	100	-15
CCn1c(/C=N/NC(=O)Cc2ccccc2)nc2ccccc21	36	103	102	-36
O=C(O)C1CCCCC1C(=O)Nc1ccc2c(c1)OCCO2 (configuration not stated)	·	98	103	8
Cc1nnc(SCC(=O)N2CC3(C)CC2CC(C)(C)C3)[nH]c1=O (configuration not stated)	49	100	98	-11
COc1ccc(-c2cc(C(F)(F)F)nc(SCCC(=O)N(C)Cc3ccccc3)n2)cc1	-3	102	107	7
COc1ccc2oc(C)c(C(N)=O)c2c1	2	104	103	-30
O=C(NCCCN1CCOCC1)c1ccc2c(=O)n(CCCN3CCCC3=O)c(=S)[nH]c2c1	1	102	95	-2

Exported with each value named: part of the list above.
CN1CCN(Cc2cc3sccc3n2Cc2ccc(F)cc2)CC1
  Mtb MbtI inh: -3	Polio RdRp inh: 101	Polio RdRp inh intensity: 100	MenB inh: -15
Nc1noc2c1C(c1ccc(F)c(Oc3ccccc3)c1)C1=C2CCCC1=O (configuration not stated)
  Mtb MbtI inh: -2	Polio RdRp inh: 102	Polio RdRp inh intensity: 102	MenB inh: -18
COc1cc(SC)ccc1C(=O)N1CCc2ccccc2C1
  Mtb MbtI inh: ·	Polio RdRp inh: 104	Polio RdRp inh intensity: 106	MenB inh: -19
Nc1nc2c(-c3ccc(Br)cc3)nnn2c2ccccc12
  Mtb MbtI inh: -54	Polio RdRp inh: 103	Polio RdRp inh intensity: 99	MenB inh: -21

Back to the main list with the seven entries that preceded the break.
SMILES	Mtb MbtI inh	Polio RdRp inh	Polio RdRp inh intensity	MenB inh
CN1CCN(Cc2cc3sccc3n2Cc2ccc(F)cc2)CC1	-3	101	100	-15
CCn1c(/C=N/NC(=O)Cc2ccccc2)nc2ccccc21	36	103	102	-36
O=C(O)C1CCCCC1C(=O)Nc1ccc2c(c1)OCCO2 (configuration not stated)	·	98	103	8
Cc1nnc(SCC(=O)N2CC3(C)CC2CC(C)(C)C3)[nH]c1=O (configuration not stated)	49	100	98	-11
COc1ccc(-c2cc(C(F)(F)F)nc(SCCC(=O)N(C)Cc3ccccc3)n2)cc1	-3	102	107	7
COc1ccc2oc(C)c(C(N)=O)c2c1	2	104	103	-30
O=C(NCCCN1CCOCC1)c1ccc2c(=O)n(CCCN3CCCC3=O)c(=S)[nH]c2c1	1	102	95	-2
COC(=O)c1ccc(Cl)cc1OC(=O)c1ccccc1	·	96	83	-14
COc1cccc(CNc2cccc(F)c2)c1	-16	102	104	-3
Cc1cccc(CCNC(=O)CCc2nnc3n(Cc4ccccc4)c(=O)c4ccccc4n23)c1	-1	104	96	-10
CCc1ccccc1NC(=O)CCSc1nc(-c2ccco2)cc(C(F)(F)F)n1	-5	101	103	5
O=C(/C=C/c1ccc(Cl)cc1)NCc1ccccc1	-1	100	100	-8
CN(C)S(=O)(=O)c1ccc(SCC(=O)NC2CCCc3ccccc32)nc1 (configuration not stated)	9	104	100	1
OCCCCNc1cccc2ccccc12	89	92	95	-36
CCOc1ccc(C(=O)N2CCN(c3ccccc3)CC2)cc1	-15	99	98	-15
O=c1c2ccccc2c(C=NCc2nc3ccccc3[nH]2)c(O)n1-c1ccccn1	-10	103	116	-28
O=C(O)Cn1cc2c(n1)CCCC2	-5	101	109	-16
NCc1ccccc1CC(=O)N[C@@H]1C(=O)N2C(C(=O)O)=C(CSc3nnnn3CC(=O)O)CS[C@H]12	5	100	101	-2
N#CCSc1ncccc1-c1nc2ccccc2[nH]1	62	100	102	23
O=C(O)C1Cc2ccccc2N1 (configuration not stated)	25	101	104	-6
Cn1c(Cc2nnc(NC3CCCCC3)s2)nc2ccccc21	-5	102	109	-24
CC(C)CN(C(=O)CSc1ccc2c(c1)OCCO2)c1c(N)n(CC(C)C)c(=O)[nH]c1=O	5	102	104	13
Cn1cccc1Cc1nnc(SCC(=O)Nc2ccc3c(c2)OCCO3)n1CCc1ccccc1	1	100	97	-41
CC(NC(N)=O)C(=O)OCc1ccc(C(C)(C)C)cc1 (configuration not stated)	-4	104	109	-1
CCC(C)(C)NC(=O)c1ccc2c(c1)OCO2	0	99	99	-19
CCn1c(C)c(CCC(=O)Nc2ccc(C(=O)OC)cc2)c(=O)n2nc(-c3ccccc3OC)cc12	-4	102	107	-1
Cc1cc2cc(CNC(=O)C(C)(C)Oc3ccc(Cl)cc3)ccc2n1C	-1	101	105	-15
CN(C(=O)c1ccc(Cl)cc1Cl)C1CCS(=O)(=O)C1 (configuration not stated)	-10	102	101	·
CN(C(=O)Cn1nc(C(F)(F)F)c2c1CCC2)C1CCCCC1	-3	104	102	-28
CSc1sc(-c2nc(C)cs2)c(C)c1-c1ccnc(=S)[nH]1	6	105	111	-12
CCC(N=c1cc(-c2ccc(OC)cc2)oc2ccc(C)cc12)C(=O)O (configuration not stated)	137	102	100	-16
Cn1c(=O)c(=O)n(C)c2cc(S(=O)(=O)NCCCN3CCN(Cc4ccccc4)CC3)ccc21	19	102	104	-4

Arranged by length of the SMILES (largest number first): 3 of the compounds above.
SMILES	Mtb MbtI inh	Polio RdRp inh	Polio RdRp inh intensity	MenB inh
CSc1sc(-c2nc(C)cs2)c(C)c1-c1ccnc(=S)[nH]1	6	105	111	-12
CC(NC(N)=O)C(=O)OCc1ccc(C(C)(C)C)cc1 (configuration not stated)	-4	104	109	-1
CCC(C)(C)NC(=O)c1ccc2c(c1)OCO2	0	99	99	-19

Additional entries
SMILES	Mtb MbtI inh	Polio RdRp inh	Polio RdRp inh intensity	MenB inh
CCN(/C(N)=N/c1nc(C)cc(C)n1)c1ccccc1	1	101	101	8
NS(=O)(=O)c1ccc(CNC(=O)COC(=O)C2CC3C=CC2C3)cc1 (configuration not stated)	-12	106	110	-10
CCC(Cc1ccccc1)NC(=O)C1CC1 (configuration not stated)	-16	100	103	-56
CCCc1[nH]nc2c1C1(CCN(C(C)=O)CC1)C(C#N)=C(N)O2	-7	100	101	5
COCc1cnc(C)nc1N	-1	102	106	·
Cc1nnc(SCC(=O)c2ccc3c(c2)OCCO3)o1	6	100	101	-5
COC(=O)c1ccc(NC(=O)COc2ccc3ccccc3c2Br)cc1	·	100	93	-2
COc1cc(NC(=S)N(N)CCO)c(OC)cc1Cl	11	100	94	-7
N/C(=N/O)C(c1ccccc1)c1ccccc1	-4	102	99	-11
Cc1cccc2nc3c(nc12)CCCC3	-3	102	103	-18
Cc1nc2c(C(=O)NCCc3ccccc3)c[nH]n2c(=O)c1Cl	-6	99	102	-9
N#CC1c2ccc(Br)cc2C=CC1c1ccccc1 (configuration not stated)	·	102	106	-7
CCC(C)(CC(=O)O)Cc1nc2ccccc2s1 (configuration not stated)	26	103	105	-11
CCN(CC(=O)Nc1ccc2c(c1)OCCO2)C(=O)c1cnc(SC)n1-c1ccccc1	10	·	·	-1
COc1ccc(NC(=O)C2CCCN(S(=O)(=O)c3ccc4c(c3)oc(=O)n4C)C2)cc1Cl (configuration not stated)	-6	103	101	0
O=C(NCc1ccco1)C1CCC(N2C(=O)c3ccccc3C2=O)CC1 (configuration not stated)	-8	100	102	17
OC(CSc1nccc(-c2ccc3c(c2)OCCO3)n1)C(F)(F)F (configuration not stated)	-220	110	115	-10
COc1ccc(CCn2c(C)cc(C3=NNC(=NC4CC4)SC3)c2C)cc1	-12	102	107	-78
CC1CN(CC(=O)NC2CCCCC2)CC(C)O1 (configuration not stated)	-14	106	112	-24
O=C1CC(=O)N(c2ccccc2)N1c1ccccc1	-11	103	107	-114
O=C(CC1c2ccccc2CCN1S(=O)(=O)c1ccc(F)cc1)OC1CCOC1=O (configuration not stated)	5	97	103	-16
CC(C(=O)NCc1ccco1)n1c(-c2cscn2)nc2ccccc21 (configuration not stated)	-2	104	100	0
CCS(=O)(=O)N1CCc2cc(C(=O)CSc3nnc(NC4CC4)s3)ccc21	6	93	96	-4
Cc1[nH]c2ccccc2c1SCC(=O)NN	-9	103	105	-17
CNS(=O)(=O)c1ccc2[nH]c(=O)[nH]c2c1	0	104	100	6

Other entries.
SMILES	Mtb MbtI inh	Polio RdRp inh	Polio RdRp inh intensity	MenB inh
Cc1ccc(/C=C(/C#N)C(=O)Nc2ncc(Cc3cc(Cl)ccc3Cl)s2)o1	13	100	101	-12
CC1=Nc2cc(C(=O)NCCCN3CCOCC3)ccc2Sc2c(C)ccc(C)c21	0	100	99	-5
O=C(NC1CC1)C1CCN(c2ncnc3c2sc2cccc(F)c23)CC1	-5	103	104	-22
c1ccc(-c2nc(CSc3nnc(-c4c[nH]c5ccccc45)o3)cs2)cc1	1	106	114	-14
O=C(COC(=O)c1ccc(Br)o1)c1ccccc1	-8	101	95	·
Cc1ccc2c(c1)c(N=NC(N)=S)c(O)n2CO	15	100	100	-39
O=C(OCCS(=O)(=O)c1ccc(C(F)(F)F)cn1)c1cccc(Cl)c1	11	102	96	-18
CCCc1nc2ccccc2n1CC(=O)N(COCC)c1c(C)cccc1CC	1	102	105	-15
CCOC(=O)/C=C1\SCC(=O)N1CCN1CCCc2cc(C)ccc21	-3	107	105	5
O=C(c1ccco1)N1CCN(c2ncnc3sc4c(c23)CCC4)CC1	32	99	100	-8
C=CCn1c(=O)c2ccccc2n2c(SCC(=O)N(C)C)nnc12	0	104	103	6
O=C(Cc1n[nH]c(=O)c2ccccc12)N1CCc2ccccc21	-3	105	105	-21
CCOc1ccc(CCNC(=O)c2ccc3c(c2)nnn3CC)cc1OCC	-3	105	112	-16
COc1ccc(NC(=O)COc2cccc3c2CCNC3=O)c(OC)c1	-4	100	109	-37
Cc1nn(CC(=O)NCCCN2CCN(Cc3ccccc3)CC2)c(=O)c2cc(-c3ccccc3)nn12	6	99	99	-8
N#CCCN1c2ccccc2Sc2ccccc21	-2	99	101	·
CCCn1c(SCc2ccc(C(C)(C)C)cc2)n[nH]c1=O	-13	104	107	-35
O=C(Nc1ccccc1)C1CCN(C(=O)c2ccco2)CC1	-4	100	101	9
O=C(NN=C1CCCC1)C1COc2ccccc2O1 (configuration not stated)	-16	103	110	-23
COC(=O)c1cc(S(=O)(=O)N2CCCN(Cc3ccc(F)cc3)C2)c[nH]1	-8	104	102	0

Screens deposited in PubChem BioAssay by ICCB-Longwood Screening Facility, Harvard Medical School.
